Compound activity (PubChem)
gsp antag: qHTS for Antagonists of gsp, the Etiologic Mutation Responsible for Fibrous Dysplasia/McCune-Albright Syndrome: qHTS. gsp-mutant cells, cAMP HTRF, 30 min; control for the full effect not named in the record. 340,000 compounds, 0.4% hits. Potency, µM (doses to about 76.9 µM), for the others: at the top dose activity change, negative = inhibition, usual class: inhibitors; active = falling curve of any shape with a large fitted effect; inconclusive = falling curve, mostly with a smaller effect; inactive = flat or rising curve; cell line not stated here;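 also: intracellular cAMP measured with PDE inhibitor Ro 20-1724 present during compound exposure; potency is read from the fitted curve at half-maximal effect; % is scaled to controls: 0 for no effect and ±100 for the full control effect; nearly all actives have a fitted effect of over 65% in size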
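HTRF cAMP measurement after 30 min RT detection following 30 min, 37C compound treatment alongside […] (added as 300 uM solution) in G418-selected cells seeded at 2000/well and grown 16–24 h.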
Sfp inh: qHTS Assay for Inhibitors of Bacillus subtilis Sfp phosphopantetheinyl transferase (PPTase); 4'-phosphopantetheinyl transferase ffp (Bacillus subtilis), Q9F4F7; Biochemical Sfp PPTase activity, qHTS; Potency, µM, without a hit: max response, negative = inhibition, hits mostly inhibitors; 310,000 compounds, 3.5% hits; AID 1490, 2009; active = well fitted inhibition curve with a large enough effect; inconclusive = small, poorly fitted or top-dose-only effect, or another doubt; inactive = no such curve, though single readings can be large or run the other way;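 also: the enzyme is Sfp with the accession as filed and its product quenches rhodamine fluorescence; potency is read from the fitted curve at half-maximal effect; 0% = enzyme reaction without inhibitor and -100% = no enzyme wells; top concentration of the series not given in the record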
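Fluorescence-quenching assay with 15 nM Sfp, 5 uM rhodamine-CoA and 12.5 uM BHQ-2-labelled ybbR peptide in pH 7.6 Hepes/MgCl2 buffer. Enzyme was pre-incubated with compound for 15 min at room temperature. Rate was taken from the 30-min fluorescence change (525/598 nm).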
D2 agonist: Beta-Arrestin HTS for Positive Allosteric Modulators of the Human D2 Dopamine Receptor: Agonists; 360,000 compounds, 0.084% hits; AID 624465, 2012; DiscoveRx PathHunter D2 beta-arrestin, luminescence, 90 min; 100% = 57 uM dopamine signal; activation, % (concentration not given with the values); in the data active = activation above about 40%; inconclusive = about 15% to 40%; inactive = below about 15%; also: the text of the record calls up to 30% inactive
Target sequence (P14416 whole entry, looked up): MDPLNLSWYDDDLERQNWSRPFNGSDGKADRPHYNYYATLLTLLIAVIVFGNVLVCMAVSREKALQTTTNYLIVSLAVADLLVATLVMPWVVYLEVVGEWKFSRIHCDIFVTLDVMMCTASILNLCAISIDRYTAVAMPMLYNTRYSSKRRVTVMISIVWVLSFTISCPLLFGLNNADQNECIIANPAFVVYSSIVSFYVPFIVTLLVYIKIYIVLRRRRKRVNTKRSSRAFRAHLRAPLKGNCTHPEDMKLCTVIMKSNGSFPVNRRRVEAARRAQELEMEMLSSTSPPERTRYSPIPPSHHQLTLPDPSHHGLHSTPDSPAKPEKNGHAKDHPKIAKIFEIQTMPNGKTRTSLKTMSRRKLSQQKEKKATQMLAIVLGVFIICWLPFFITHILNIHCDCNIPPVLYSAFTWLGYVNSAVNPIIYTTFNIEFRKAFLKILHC
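Agonist mode: compounds alone added to overnight-plated D2 PathHunter cells for 90 min at 37 C, with 57 uM final dopamine (EC100) defining full response. Beta-arrestin recruitment detected by chemiluminescent reagent, read after 1 h at ambient temperature.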
ClpP mod: qHTS Assay for Activators of ClpP | ATP-dependent Clp protease proteolytic subunit (Bacillus subtilis (strain 168)), P80244 | purified B. subtilis ClpP, FRET peptide cleavage, 20 min | Potency, µM (titrated, usually from 57.5 µM), inactives show at the highest dose activity change, negative = active | 340,000 compounds, 1.9% hits; active = well fitted falling curve with a large enough effect; inconclusive = small, poorly fitted or top-dose-only effect; inactive = no such curve, though single readings can be large or run the other way; also: potency is read from the fitted curve at half-maximal effect; the source files actives as falling curves though it sought activators and does not explain the sign; nearly all actives have a fitted effect of over 65% in size; many hits overshoot -100%
Target sequence (P80244 whole entry, looked up): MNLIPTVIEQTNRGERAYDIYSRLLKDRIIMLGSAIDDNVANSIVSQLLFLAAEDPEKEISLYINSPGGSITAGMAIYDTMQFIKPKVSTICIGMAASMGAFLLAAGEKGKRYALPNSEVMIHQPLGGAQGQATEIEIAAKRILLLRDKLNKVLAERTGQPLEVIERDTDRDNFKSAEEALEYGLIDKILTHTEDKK
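FRET quenching reversal measured ClpP activation: 10 microg/mL B. subtilis ClpP at pH 8 with the FRET-FV decapeptide, read at 430 nm after 320 nm excitation. The 20-min minus 0-min signal was scaled between DMSO/no-enzyme wells and ADEP (5.8 microM final).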
PINK1 modulator: A Quantitative High throughput Screen to Identify Chemical Modulators of PINK1 Expression; PINK1 immunofluorescence, high-content cytometry, 24 h; Potency, µM (doses to about 76.6 µM), inactives show at the highest dose activation (PINK1 increase), hits mostly activators; 410,000 compounds, 0.2% hits; AID 624263, 2012; active = well fitted activation curve with a large enough effect; inconclusive = small, poorly fitted or top-dose-only effect; inactive = flat fitted curve, though single readings scatter; cell line not stated here;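 also: potency is read from the fitted curve at half-maximal effect; % of control where 0% means no effect; nearly all actives have a fitted effect of over 65% in size; a mitochondrial uncoupler was the plate control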
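A stable cell line was treated with compounds at 5 concentrations for 24 hours, with CCCP as control. PINK1 levels and mitochondrial localization were measured by immunofluorescence with mitochondrial, cell and nuclear markers after fixation, read by laser-scanning cytometry.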
Menin MLL FP FL: qHTS Assay for Inhibitors Targeting the Menin-MLL Interaction in MLL Related Leukemias: Competition With Fluorescein Labeled MLL-derived Peptide; 290,000 tested, under 10 active; AID 1766, 2009; FP activity change, % at 61.4 µM; Fluorescence polarization, fluorescein-MLL peptide displacement from menin; inconclusive = falling polarisation curve, or a change in total fluorescence; inactive = total fluorescence flat and polarisation flat or rising; no compound was filed as active; the % refers to the polarisation; negative = inhibition;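 also: % of control where 0% means no effect; inhibitors lower the polarisation; unlabelled MLL peptide was the positive control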
gsp agonist: qHTS for Agonist of gsp, the Etiologic Mutation Responsible for Fibrous Dysplasia/McCune-Albright Syndrome: qHTS. AID 624287, 2012. gsp mutant cells, cAMP HTRF, 30 min; control for the full effect not named in the record. 340,000 compounds, 0.13% hits. Potency, µM (top dose mostly 76.9 µM), for inactives: at the highest dose activation (cAMP increase), usual class: activators; active = well fitted activation curve with a large enough effect; inconclusive = small, poorly fitted or top-dose-only effect, or another doubt; inactive = no such curve, though single readings can be large or run the other way; cell line not stated here;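 also: phosphodiesterase inhibitor Ro 20-1724 added with compounds to block cAMP breakdown; potency is read from the fitted curve at half-maximal effect; nearly all actives have a fitted effect of over 60% in size; about a fifth of the inactives were tested at one dose only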
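Cells in DMEM/10% FBS with G418 were pretreated with compounds in DMSO plus […] (300 uM stock) for 30 min at 37C. cAMP was measured by HTRF (cAMP-d2 plus anti-cAMP antibody-K) after 30 min at room temperature.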
* marks the source's active call; other numbers are inactive results; ? = inconclusive; . = no result given; [ ] = dose if it differs, or a comment.

SMILES	gsp antag	Sfp inh	D2 agonist	ClpP mod	PINK1 modulator	Menin MLL FP FL	gsp agonist
Cc1cc(=O)n2nc(N3CCC(C(=O)NCC(C)c4ccccc4)CC3)sc2n1 (stereo unspecified)	-4%	22%	-1.7	-0.5%	0.1%	5.3	7%
CCOC(=O)C1CCN(C(=O)c2sc3ncnc(N4CCC(C)CC4)c3c2C)CC1	-19%	4%	-3.2	-4.0%	2.0%[38.3 µM]	-0.4	0%
Cn1cnc2ccc([N+](=O)[O-])cc2c1=O	0%	-10%	0.7	-0.1%	-0.8%	0.8	12%
C/C(=N/NS(=O)(=O)c1ccc(CC(C)C)cc1)c1ccncc1	-1%	3%	4.9	-2.4%	-1.3%	.	1%
COc1ccc(CC(=O)NNC(=O)c2ccoc2C)cc1OC	4%	9%	-1.7	-5.8%	10%[38.3 µM]	-0.9	-30%[inhibitor]
Cc1cccc(N(CC(=O)NC(C)(C)C)C(=O)CCC(=O)Nc2nccs2)c1	3%	25%	-3.3	-0.9%	0.4%	3.3	14%
CCN1C(=O)N(C)C2(c3ccccc3)N(C)C(=O)N(C)C12c1ccccc1 (stereo unspecified)	-1%[15.4 µM]	3%	-4.4	-0.7%	0.5%	-2.7	-1%
COC(=O)c1c(-c2ccc(OC)c(OC)c2)csc1N	-2%	15%	-1.9	1.5%	-0.6%	-0.2	0%
Cc1c(C)n(CCC#N)c2ccc(Cl)cc12	20%	1%	-3.8	1.1%	1.0%	6.7	-10%
CCOc1cc(C(=O)OCC(=O)Nc2ccc(F)cc2Cl)ccc1OCC(=O)N1CCOCC1	-23%	.	-4.1	-5.3%	2.0%	.	-20%
CC(C)C(c1nnnn1C1CCCCC1)N1CCCc2ccccc21 (stereo unspecified)	-2%	6%	-1.9	-5.1%	-1.5%	1.6	24%
Cc1ccc(OCCCC(=O)Nc2ccc(Br)cc2)cc1	-8%	8%	1.5	-1.1%	0.2%	0.2	-37%[inhibitor]
Cc1ccc(CCNC(=O)CN2CCN(Cc3ccccc3F)C2=O)cc1	-2%	-3%	-0.3	0.7%	0.0%	-0.8	-39%[inhibitor]
CN(C)c1ccc(C(C(=O)NCC2CCCO2)N(C(=O)c2snc(C(N)=O)c2N)c2ccccc2)cc1 (stereo unspecified)	10%	2%	2.4	4.3%	0.2%	.	?
CN1CCn2cnc(C(=O)NCc3ccc(CNC(=O)OC(C)(C)C)cc3)c2C1=O	.	.	-5.7	0.4%	2.3%	.	.
CC(=O)c1ccccc1NC(=O)CCNC(=O)c1ccco1	4%	16%	-3.3	.	-0.9%	-6.2	-13%[15.4 µM]
CC(=O)N1CCN(Cc2nc(C(c3ccccc3)c3ccccc3)no2)CC1	3%	15%	-1.4	.	-1.2%	0.4	3%
S=c1[nH]c2ccccc2o1	7%	-28%	11	-5.4%	0.0%	4.4	?
CCOC(=O)N1CCC(NC(=S)Nc2ccc3nc(N4CCN(CC)CC4)cc(C)c3c2)CC1	4%	10%	-0.2	-19%	0.2%	-1.5	5%
CN(CC(=O)Nc1cccc2ccccc12)C(=O)c1ccc(F)cc1F	-11%	.	-2.8	0.9%	-0.6%	.	?
O=C(CN1CCc2cc3c(cc2C1)OCCCO3)Nc1ccc(F)cc1	-15%	29%	-2.4	-0.4%	-0.2%	.	3%
Cn1ccnc1Sc1nnnn1-c1ccccc1	-3%	9%	-2.2	0.0%	-0.8%	-0.5	?
CCCn1c(SCC(=O)NNC(=O)c2ccc(C)cc2)nnc1C(C)C	14%	10%	-7.5	0.3%	4.3%	.	-3%[15.4 µM]
Oc1ccccc1-c1nnco1	5%	.	-1.6	?	2.7%	.	3%
CC(=O)Nc1ccc2c(c1)C(=O)N(c1cccc3ccccc13)C2=O	-7%	12%	5.9	-0.3%	1.9%	-0.8	-5%[15.4 µM]
SMILES	gsp antag	Sfp inh	D2 agonist	ClpP mod	PINK1 modulator	Menin MLL FP FL	gsp agonist
O=C(CCC1CCCC1)NNC(=O)c1ccccc1O	7%	.	-2.8	?	5.8%	.	-2%
COc1cc([N+](=O)[O-])ccc1NC(=O)CSc1nncn1-c1cccnc1	-13%	-1%	-1.2	0.3%	-1.7%	-1.8	-5%[15.4 µM]
CCN(CC)C(=O)C1CCCN(c2ccc([N+](=O)[O-])cc2/C=N/NC(=O)c2cccc(O)c2)C1 (stereo unspecified)	?	-9%	0.9	-12%	4.1%	0.6	-7%
CCOc1ccc(CN(C)C(=O)CNC(=O)c2ccc(Br)o2)cc1OC	-15%	12%	5.4	.	0.3%	-6.3	-44%[15.4 µM]
O=C(NCc1ccccc1)C12CC3CC(CC(Cl)(C3)C1)C2	-2%	18%	-1.5	32µM*	-1.9%	2.2	-7%[15.4 µM]
COc1ccc(-n2c(SC3CCOC3=O)nc3ccccc3c2=O)cc1Cl (stereo unspecified)	-5%	14%	5.7	-0.3%	-1.0%	0.5	-45%[inhibitor]
Cc1nc2ccc(C(=O)NCc3ccc4c(c3)OCO4)cc2s1	-2%	4%	-1.1	0.5%	3.6%	1.5	7%
CC(=O)Nc1ccc2c(c1)nc1n2CCOC1	0%	-1%	2.3	-0.8%	19%[38.3 µM]	-1.4	-8%
CC1(C)CC(=O)C=C(NNC(=O)c2ccccc2)C1	5%	15%	-1.1	-6.6%	4.3%	-0.1	14%
O=C(NCC(=O)N1CCN(C(=O)c2ccco2)CC1)c1ccc(Br)cc1	11%	9%	-7.4	.	1.0%	.	-5%[15.4 µM]
O=C(NCc1cccnc1)C1CCN(S(=O)(=O)N2CCC3(CC2)OCCO3)CC1	9%	9%	-1.4	-0.8%	-0.1%[38.3 µM]	2.2	-67%[inhibitor]
CN1Cc2cccc3c2C(Cc2ccccc2S3)C1 (stereo unspecified)	13%	-7%	-1.6	1.2%	6.8%	.	-23%
Cc1c(O)ccc(C(=O)CN2CCN(Cc3ccc4c(c3)OCO4)CC2)c1O	3%	-1%	3.2	-6.0%	-1.4%	-0.5	-38%[inhibitor]
CC1CCCN(c2ccc(C(=O)OCC(=O)N3c4ccccc4Sc4ccccc43)cc2[N+](=O)[O-])C1 (stereo unspecified)	0%	5%	-2.7	1.3%	-0.2%	.	-6%
CCCCCCOc1ccc(-c2ccc(C#N)cn2)cc1	1%	?	-1.9	24%	-2.6%	2.8	11%
Cc1cccc(C(=O)Nc2ccc(NC(=O)Cc3ccc(Cl)cc3)cc2)c1	13%	6%	-0.4	32µM*	-1.7%	7.5	4%
CCC(CC)COC(=O)C1=C(C)NC(=O)NC1c1cc(OC)ccc1OC (stereo unspecified)	-6%	7%	2.0	-3.9%	0.9%	-0.7	?
c1ccc(N2CCN(c3nc(-c4cccs4)nc4ccccc34)CC2)cc1	?	-19%	-3.1	.	0.5%	5.1	16%[15.4 µM]
COc1ccc(CNC(=O)CN2C(=O)NC3(CCCCCCC3)C2=O)cc1	1%	.	-4.8	-0.8%	1.2%	.	7%[15.4 µM]
CCOC(=O)CSc1cc(C)nc2ccc(OC)cc12	-6%	5%	-3.6	.	0.4%	0.5	9%[15.4 µM]
O=C(NCCC1=CCCCC1)c1coc(=O)c(Br)c1	19%	7%	-0.3	3.8%	25%	-1.9	1%
CCNc1nc(Cl)nc(N(NC(C)=O)C(C)CC)n1 (stereo unspecified)	13%	18%	0.2	-21%	-0.5%	6.5	9%
OC(CC1CC12c1ccccc1-c1ncccc12)(c1ccccc1)c1ccccc1 (stereo unspecified)	-6%	9%	-1.3	-6.3%	.	-0.6	-12%
COc1ccccc1N1CCN(C(=O)c2ccc3ncsc3c2)CC1	-16%	.	-1.6	-3.2%	6.0%	.	21%
CCOc1ccc(CC(=O)Nc2cc(=O)n(C)c(=O)n2C)cc1	8%	1%	4.4	0.3%	2.5%	0.0	1%[15.4 µM]
SMILES	gsp antag	Sfp inh	D2 agonist	ClpP mod	PINK1 modulator	Menin MLL FP FL	gsp agonist
C=CCn1c(SCC(=O)Nc2cccc3ccccc23)nc(O)c(CC)c1=O	-19%	7%	-2.8	-4.6%	?	0.6	-3%
C=CCC1(CC=C)CCCN1C(=O)CC1C(=O)NCCN1Cc1ccccc1OC (stereo unspecified)	6%	14%	-0.4	.	1.7%	-3.2	-3%[15.4 µM]
CCCCCCCC(=O)N/N=C(/C)c1c(O)cc(C)oc1=O	7%	9%	0.7	1.3%	27%[38.3 µM]	4.4	18%
COC(=O)[C@@]12CCCCN1[C@H](c1ccc(-c3cc(C(C)=O)cs3)c(OC)c1)[C@H]1C(=O)N(C)C(=O)[C@H]12	-15%	.	-2.0	3.7%	-0.1%	.	?
O=C(NNc1cccc(Cl)n1)c1c(F)cccc1F	4%	12%	-3.5	-0.6%	1.0%	2.9	3%[15.4 µM]
COc1ccc(C(C)=O)cc1COC(=O)c1ccc(C)c(S(=O)(=O)N2CCOCC2)c1	7%	.	-3.1	0.7%	0.4%	.	-5%
CCCCNC(=O)C1(C)CCCCN1C(=O)c1sccc1C (stereo unspecified)	.	.	-1.9	-0.1%	-0.2%	.	.
CCOC(=O)CCNC(=O)CCc1nnc(CCCc2ccccc2)o1	-1%	12%	-2.2	.	0.5%	1.1	-75%[inhibitor]
CCc1nnc(NC(=O)c2cccc(S(=O)(=O)N(C)c3ccc(OC)cc3)c2)s1	.	12%	-14	.	-0.5%	-1.4	-3%[15.4 µM]
CCCCCCN1C=CC(=C2C(=O)c3ccccc3C2=O)C=C1	-2%	-4%	-0.3	-0.4%	?	1.8	-1%
COc1ccc(-c2nnc(SC(=O)N3c4ccccc4Sc4ccccc43)o2)cc1	-1%	-25%	7.2	-16%	.	3.3	21%
CSc1ccccc1NC(=O)c1cc(S(=O)(=O)N(C)C)ccc1N1CCCC1	-9%	8%	-2.0	-3.0%	0.6%	.	-77%[inhibitor]
COCCNC(=O)[C@@H]1CCCN1C(=O)C1CCN(S(=O)(=O)c2ccc(C)cc2)CC1	17%	20%	-3.9	-0.5%	2.3%	0.0	1%
O=C1c2ccccc2C(=O)N1Cc1nc(-c2ccncc2)no1	6%	-3%	-2.2	-1.0%	0.5%[38.3 µM]	1.9	-25%
